# Bioassay records (PubChem BioAssay)
# Vaccinia mCherry – inhibitors of vaccinia virus infection (mCherry reporter signal). Vaccinia virus mCherry reporter infection, fluorescence; about a quarter of the inactives have no number. Potency, µM (top dose mostly 36.5 µM), for the others: top-dose activity change, negative = inhibition, most hits filed as inhibitors. 310,000 tested, 0.63% active. AID 720579; active = well fitted inhibition curve with a large enough effect; inconclusive = small, poorly fitted or top-dose-only effect; inactive = no such curve, though single readings can be large or run the other way; tested in A549 cells; also: nearly all actives have a fitted effect of over 35% in size; inactives centre near -10
# VACV Venus inh – vaccinia inhibition (Venus reporter) | Vaccinia virus Venus reporter expression, fluorescence | Potency, µM (titrated, usually from 36.5 µM), without a hit: at the highest dose activity change, negative = inhibition, most hits filed as inhibitors | 330,000 tested, 0.46% active; active means well fitted inhibition curve with a large enough effect; inconclusive means small, poorly fitted or top-dose-only effect; inactive means no such curve, though single readings can be large or run the other way; tested in A549 cells; also: nearly all actives have a fitted effect of over 30% in size; inactives centre near -10
# * = called active by the depositor; i = inactive; u = inconclusive; x = no result given; & = joins results of further samples; [ ] = another dose, or the depositor's remark. % is scaled to controls: 0 for no effect and ±100 for the full control effect; potency is read from the fitted curve at half-maximal effect. This is a random part of the collection; 0.86% or so of the library scored in one or more.
SMILES | Vaccinia mCherry | VACV Venus inh
N#CCCn1cc(C(=O)CN2C(=O)NC3(CCc4ccccc43)C2=O)c2ccccc21 (stereo not drawn) | 5% | -11%
COc1ccc(NS(=O)(=O)c2cc(NC(=O)CC3CCCC3)ccc2N2CCOCC2)cc1 | -24% | -15%
CCN1CCN(c2cc(C)c3cc(NC(=O)Cc4ccc(OC)c(OC)c4)ccc3n2)CC1 | -21% | u
Cc1ccc(S(=O)c2ccc(NC(=O)C3CC3)cc2C#N)cc1 (stereo not drawn) | i | -9%
Cc1ccc(C)c(NC(=O)C(Sc2nc3ccc(C)cc3[nH]2)c2ccccc2)c1 (stereo not drawn) | -25% | u
CCC1(CC)NC(=O)N(CC(=O)OC(C)C(=O)Nc2ccc(Cl)cn2)C1=O (stereo not drawn) | i | -12%
CCOP(=O)(OCC)C(NC(=O)c1cc([N+](=O)[O-])cc([N+](=O)[O-])c1)C(F)(F)F (stereo not drawn) | u | -4%
NC1=NC(=O)/C(=C\C=C\c2ccccc2)S1 | i | -5%
C[C@@H]1CN([C@H](C)CO)C(=O)CCCn2cc(nn2)CO[C@H]1CN(C)C(=O)c1ccc2ccn(C)c2c1 | 6% | 9%
Cc1ccsc1/C=C(\CC(=O)O)c1nc2ccccc2o1 | -1% | -8%
CC1(c2ccccc2)NC(=O)N(CC(=O)N2CCN(S(=O)(=O)c3cccc([N+](=O)[O-])c3)CC2)C1=O (stereo not drawn) | -16% | -12%
Cc1ccc(C)c2[nH]c(=O)c(CCNC(=O)c3ccc(S(=O)(=O)N4CCOCC4)cc3)cc12 | -29% | -20%
Nc1cc2c(cc1O)CCCC2 | -17% | 15%
COc1ccc(C/C(C)=N/NC(=O)c2ccc(C)cc2C)cc1 | i | -9%
CCOC(=O)c1oc2cccc(OC(C)=O)c2c1C | u | u

# Carrying on:
SMILES | Vaccinia mCherry | VACV Venus inh
COc1ccccc1-c1cnc(C(O)c2cc(C)c(OC)c(C)c2)[nH]1 (stereo not drawn) | -13% | -13%
OCCC1CN(Cc2cccn2-c2nccs2)CCN1Cc1ccc(F)c(F)c1 (stereo not drawn) | -15% | -22%
N#CCCCc1cn(-c2nc3ccccc3s2)nn1 | -9% | 3%
COc1ccccc1N1CCN(S(C)(=O)=O)CC1 | 2% | -1%
COc1ccccc1/C=C/C(=O)N1CCCC1 | -3% | -4%
Cc1[nH]n(-c2ccccc2)c(=O)c1C=Nc1cccc(F)c1 | i | -16%
COc1cc(CCC(N)c2cccc(O)c2)cc(OC)c1OC (stereo not drawn) | -12% | -7%
COc1ccc(C(C)(O)c2nc(-c3ccc4ccccc4c3)cs2)cc1 (stereo not drawn) | -13% | 2%
CC(=O)NC(c1ccccc1)c1nc(-c2cccc(C(C)C)c2)cs1 (stereo not drawn) | -14% | -18%
COC(=O)c1ccccc1NC(=O)CN1CCN(C(=O)c2ccco2)CC1 | -21% | -13%
CC(=O)Nc1ccc(S(=O)(=O)Oc2ccc(/C=C3\SC(N)=NC3=O)cc2)cc1 | -2% | -2%
CCCOc1ccc(OC(=O)Cc2ccc(OC)c(S(=O)(=O)N3CCOCC3)c2)cc1 | -13% | -21%
O=C(CSc1nnc(NC(=O)C2CC(=O)N(c3ccccc3)C2)s1)NC1CCCC1 (stereo not drawn) | i | -15%
O=C(COC(=O)/C=C/c1cccc(Cl)c1)NCCc1ccccc1 | -15% | -10%
COc1cccc(-n2c(SC)nnc2C2CCN(CCC(C)c3ccc(C)o3)CC2)c1 (stereo not drawn) | -16% | -5%

# New compounds follow
SMILES | Vaccinia mCherry | VACV Venus inh
O=C(NCC1=C(c2ccc3ccccc3c2)C[C@@H]2CC[C@H]1N2Cc1ccco1)c1cccs1 | -11% | -19%
c1ccc(SSc2ccccc2)cc1 | i | -13%
CCCCc1ccc(NC(=S)N2CCN(c3ccccn3)CC2)cc1 | -7% | u
Clc1ccc(-n2cccc2/C=N/n2cnnc2)cc1 | x | 8%
CCN(C[C@H]1N[C@@](CC)(C(=O)OC)[C@H]2C(=O)N(Cc3ccccc3)C(=O)[C@@H]12)C(=O)Nc1ccc(C)cc1 | i | -15%
Cc1cc(C)n(C(=O)C(C)n2nc([N+](=O)[O-])c(Br)c2C)n1 (stereo not drawn) | -5% | 7%
COc1ccc(C(=O)NC(=S)Nc2ccc3[nH]c(=O)[nH]c3c2)cc1Br | i | -8%
Cc1ccc2occ(CC(=O)N(Cc3ccc(N(C)C)cc3)C3CCS(=O)(=O)C3)c2c1 (stereo not drawn) | -6% | -4%
CCN1C(=O)C(CC(=O)Nc2ccc(F)cc2)N(CCc2ccc(OC)cc2)C1=S (stereo not drawn) | -22% | -16%
CCOC(=O)c1ccc(Nc2ccc(C(C)=O)cc2)cc1 | 12% | -12%
CC(=O)c1c(N2CCOCC2)nc(=S)n(Cc2ccccc2)c1C | i | -11%
O=C(Nc1c[nH]c(=O)[nH]c1=O)c1cccc(F)c1 | -11% | -4%
CCOC(=O)N1CCN(C(=O)c2cnn3c(C)c(Cc4ccc(C)cc4)c(C)nc23)CC1 | -10% | -3%
O=C(CCC(=O)N(CC(=O)NC1CCCC1)Cc1ccccc1Cl)Nc1nccs1 | -11% | 7%
CS(=O)(=O)c1ccccc1-c1nnc(NC(=O)c2ccc3c(c2)OCCO3)o1 | -3%[7.34 µM] | -3%[7.34 µM]

# New compounds follow
SMILES | Vaccinia mCherry | VACV Venus inh
COc1ccccc1OCCSc1nnc(C)n1-c1ccccc1 | -12% | -6%
CC1=C(C(=O)NCc2ccccc2)C(c2cccnc2)n2ncnc2N1 (stereo not drawn) | x | -1%
CC(=O)Nc1cnc2ccccc2n1 | -18% | -13%
COc1ccc(N=Cc2c(O)ccc3ccccc23)cc1 | u | -15%
Cc1cccc(C(=O)N/N=C/c2ccoc2)c1 | -9% | -7%
Cc1[nH]oc(=O)c1N=Nc1c(Cl)cccc1Cl | -16% | -12%
COc1ccc(C(=O)Nc2ccc(-c3ccc(C)o3)cc2)cc1S(=O)(=O)N1CCOCC1 | u | u
C[C@H]1CN[C@@H](CCO)/C1=C\c1ccccc1 | -21% | -13%
COc1ccc(N2CCN(c3nc4c(c(=O)n(C)c(=O)n4C)n3Cc3ccccc3)CC2)cc1 | -15%[1.46 µM] | u
CC1CCCC(C)N1/N=C/c1ccc(O)c(O)c1 (stereo not drawn) | u | -8%
COC(=O)CSc1nc(C)cc(C)n1 | 6% | 5%
CC(C)CC(OC(=O)c1cccs1)C(=O)NCc1cccs1 (stereo not drawn) | -7% | -14%
COc1ccc(CCN2CCC(CN3C(=S)NC[C@@H]3CC(C)C)CC2)cc1OC | -12% | -9%
Cc1ccc2c(CN3CC(C)CC(C)C3)cc(=O)oc2c1 (stereo not drawn) | -4% | -5%
CSc1ccc(CNc2ccc(C)cc2)cc1 | -9% | -11%

# More records:
canonical_smiles | Vaccinia mCherry | VACV Venus inh
O=C1CC(NCc2ccc(F)cc2)C(=O)N1c1ccccc1 (stereo not drawn) | i | -10%
COc1cc2c(cc1OC)CN(C(=O)C1CCCN1S(=O)(=O)c1ccc(C)cc1)CC2 (stereo not drawn) | -10% | -5%
Cc1ccc(CNC(=O)CSc2nnc(CNC(=O)c3ccc(F)cc3)o2)cc1 | -11% | 0%
N#CC1=C(N)N(c2ccccc2)C(c2ccco2)C1(C#N)C#N (stereo not drawn) | -23% | -12%
CCCOc1ccccc1C1C(C(=O)Nc2ccccc2)=C(C)Nc2nnnn21 (stereo not drawn) | -5% | -13%
COc1ccc(NC(=O)Cn2cc(S(=O)(=O)N3CCC(C)CC3)c3ccccc3c2=O)cc1Cl | -25% | -15%
CC(=O)C1=C(C)Nc2ncnn2C1c1ccccc1 (stereo not drawn) | -16% | -10%
CCCC(=O)Nc1c2c(nn1-c1ccc(C)cc1C)CSC2 | -9% | -5%
COc1cc(C2c3cc4c(cc3OC(N3CCCCC3)C2C)OCO4)cc(OC)c1O (stereo not drawn) | -18% | -22%
COc1ccc(S(=O)(=O)N2CCC(C(=O)NCCC(=O)NCc3ccncc3)CC2)cc1 | -26% | -4%
COc1cc(NC(=O)CSc2nc3nc(C)c(Cc4ccccc4)c(C)n3n2)cc(OC)c1OC | -24% | -23%
CCC1NC(=S)NC(C)=C1C(=O)c1ccccc1 (stereo not drawn) | i | -16%

# Grouped by structure, those above containing bromine (2)
canonical_smiles | Vaccinia mCherry | VACV Venus inh
Cc1cc(C)n(C(=O)C(C)n2nc([N+](=O)[O-])c(Br)c2C)n1 (stereo not drawn) | -5% | 7%
COc1ccc(C(=O)NC(=S)Nc2ccc3[nH]c(=O)[nH]c3c2)cc1Br | i | -8%

# Additional compounds:
canonical_smiles | Vaccinia mCherry | VACV Venus inh
CC1CCc2nc(NC(=O)Cc3ccc(Cl)cc3)sc2C1 (stereo not drawn) | i | -6%
Cc1cc(C)n2nc(C(=O)N/N=C/c3cccs3)nc2n1 | -13% | -7%
CCC1CCCN1Cn1cnc2c([nH]c3ccc(C)cc32)c1=O (stereo not drawn) | -20% | -12%
CCN(CC)S(=O)(=O)c1ccc(C(=O)OCC(=O)N2CCN(C(=O)c3ccco3)CC2)cc1 | -13% | -10%
COCCNC(=O)CSc1nc2cc3c(cc2c(=O)n1CCCCCC(=O)NCc1ccc(OC)cc1)OCO3 | -14% | -9%
CC1=N/C(=C\c2ccccc2Cl)C(=O)O1 | i | 7%
Cc1ccc(N2C(=S)NC3c4cc(Cl)ccc4OC2(C)C3C(=O)N(C)C)cc1 (stereo not drawn) | -21% | -10%
COc1cccc(NC(=O)C2CSC3(C)CCC(=O)N23)c1 (stereo not drawn) | -23% | -12%
CCOC(=O)CSc1nc2cc3c(cc2cc1C)OCO3 | 22%&-4% | -9%&-1%
Cc1ccc(NC(=O)Cn2c(=O)n(Cc3ccco3)c(=O)c3sc4ccccc4c32)c(C)c1 | -6% | -20%
O=C1c2ccccc2C(O)(c2ccccc2)N1c1ccncc1 (stereo not drawn) | -24% | -17%
COc1ccc(OC)c(C2C3=C(CCCC3=O)Nc3nnnn32)c1 (stereo not drawn) | -5% | 7%

# The results go on:
canonical_smiles | Vaccinia mCherry | VACV Venus inh
CC(=O)c1c(C)[nH]c(C(=O)OCC(=O)Nc2cccnc2Cl)c1C | -13% | -14%
CCCCOc1ccc(CSCCN=C(N)N)cc1 | u | u
COc1ccccc1C(=O)Nc1ccc2c(c1)nc(CCNC(=O)c1ccco1)n2C | u | -26%
O=C(Nc1ccc(Cl)cc1)O/N=C(\c1ccccc1)c1ccccn1 | i | -4%
COc1cccc(C(=O)NCC2CCCN(C(=O)Cc3cccc(C)c3)C2)c1OC (stereo not drawn) | i | -7%
O=C(Nc1cc(S(=O)(=O)N2CCOCC2)ccc1N1CCOCC1)c1ccc(S(=O)(=O)N2CCCCC2)cc1 | 7% | -6%
COc1ccc(Cc2nnc(SCC(=O)c3cccc([N+](=O)[O-])c3)n2C)cc1 | i | -8%
Cc1ccc(C)c(S(=O)(=O)NC(Cc2c[nH]c3ccccc23)C(=O)O)c1 (stereo not drawn) | -16% | -5%
CCN1C[C@@]2(COC)C3[C@@H](OC)[C@H]4[C@@H]1[C@@]3(C1C[C@H]3[C@H](OC(=O)c5ccccc5)C1[C@]4(OC(C)=O)C[C@H]3OC)[C@@H](OC)C[C@H]2O (stereo partly drawn) | -2% | 5%
O=S(=O)(NCC(c1ccco1)N1CCN(c2ccc(F)cc2)CC1)c1cc(F)ccc1F (stereo not drawn) | -2% | -13%
c1ccc(Cn2cnc3ccccc32)cc1 | -13% | -17%
CC(=O)N1c2ccc(S(=O)(=O)N3CCCCC3)cc2CC1C(=O)Nc1ccc(C)cc1 (stereo not drawn) | -7% | -3%

# Later entries:
canonical_smiles | Vaccinia mCherry | VACV Venus inh
O=C1N=C(N2C=CC(=C3C=CNC=C3)C=C2)/C(=C/N=NC(=O)c2ccccc2)S1 | 11% | 3%
Cc1nc(SCc2ccc(F)cc2)c2oc3ccccc3c2n1 | -4% | -7%
CCCCn1c(/C=C/c2ccco2)nc2ccccc21 | -7% | 0%
CC(=O)Nc1ccc(C(C#N)=Cc2ccc(N(C)CCC#N)cc2)cc1 | -15% | -9%
O=C(COc1ccccc1)c1cn(CC(=O)N2CCOCC2)c2ccccc12 | -5%[1.46 µM] | -11%
Cn1nnc2c(NCc3ccc(Cl)cc3)ncnc21 | u | -20%
CC(=O)C1=C(C)OC(N)=C(C#N)C1c1cc([N+](=O)[O-])ccc1Cl (stereo not drawn) | -7%[7.34 µM] | -25%[7.34 µM]
COc1cc(NC(=O)CN2CCCCC2)c(C)cc1[N+](=O)[O-] | -11% | -20%
Cc1ccc(N2CC(C(=O)OCC(=O)c3c(N)n(CC(C)C)c(=O)n(C)c3=O)CC2=O)cc1 (stereo not drawn) | i | -21%
C=CCC1(CCCCC)C(=O)NC(=S)NC1=O | i | -5%
CCC(C)C(=O)Nc1cc(OC)c(OC)cc1C(=O)O (stereo not drawn) | x | 4%
O=C(Nc1cc(Cl)cc(Cl)c1)c1ccc(F)c(S(=O)(=O)N2CCc3ccccc32)c1 | -26% | -21%

# Profiles as entered above. Screens in order: Vaccinia mCherry, VACV Venus inh
# Listed for Cn1nnc2c(NCc3ccc(Cl)cc3)ncnc21 : u, -20%
# Listed for CC(=O)Nc1ccc(C(C#N)=Cc2ccc(N(C)CCC#N)cc2)cc1 : -15%, -9%
# Listed for CCCCn1c(/C=C/c2ccco2)nc2ccccc21 : -7%, 0%
# Listed for O=C(COc1ccccc1)c1cn(CC(=O)N2CCOCC2)c2ccccc12 : -5%[1.46 µM], -11%
# Listed for O=C1N=C(N2C=CC(=C3C=CNC=C3)C=C2)/C(=C/N=NC(=O)c2ccccc2)S1 : 11%, 3%
